Screening results deposited in PubChem by National Center for Advancing Translational Sciences (NCATS).
gsp antagonist: antagonizes gsp, the McCune-Albright syndrome mutation; Potency, µM (top dose mostly 76.9 µM), for the others: at the highest dose activity change, negative = inhibition, actives largely listed as inhibitors; hit rate 0.4% among 340,000; gsp-mutant cells, cAMP HTRF, 30 min; control for the full effect not named in the record; active = falling curve of any shape with a large fitted effect; inconclusive = falling curve, mostly with a smaller effect; inactive = flat or rising curve; cell line not stated here;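 also: intracellular cAMP measured with PDE inhibitor Ro 20-1724 present during compound exposure; potency is read from the fitted curve at half-maximal effect; % is scaled to controls: 0 for no effect and ±100 for the full control effect; nearly all actives have a fitted effect of over 65% in size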
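HTRF cAMP measurement after 30 min RT detection following 30 min, 37C compound treatment alongside […] (added as 300 uM solution) in G418-selected cells seeded at 2000/well and grown 16–24 h.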
gsp ag: agonists of gsp mutant (McCune-Albright syndrome). gsp mutant cells, cAMP HTRF, 30 min; control for the full effect not named in the record. Potency, µM (highest dose often 76.9 µM), without a hit: at the highest dose activation (cAMP increase), actives largely listed as activators. hit rate 0.13% among 340,000; active = well fitted activation curve with a large enough effect; inconclusive = small, poorly fitted or top-dose-only effect, or another doubt; inactive = no such curve, though single readings can be large or run the other way; cell line not stated here;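 also: phosphodiesterase inhibitor Ro 20-1724 added with compounds to block cAMP breakdown; potency is read from the fitted curve at half-maximal effect; nearly all actives have a fitted effect of over 60% in size; about a fifth of the inactives were tested at one dose only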
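Cells in DMEM/10% FBS with G418 were pretreated with compounds in DMSO plus […] (300 uM stock) for 30 min at 37C. cAMP was measured by HTRF (cAMP-d2 plus anti-cAMP antibody-K) after 30 min at room temperature.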
Menin MLL FP FL: inhibitors of human menin-MLL interaction, wild-type MLL peptide; FP activity change, % at 61.4 µM; Fluorescence polarization, fluorescein-MLL peptide displacement from menin; AID 1766; 290,000 tested, under 10 active; inconclusive = falling polarisation curve, or a change in total fluorescence; inactive = total fluorescence flat and polarisation flat or rising; no compound was filed as active; the % refers to the polarisation; negative = inhibition;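 also: % of control where 0% means no effect; inhibitors lower the polarisation; unlabelled MLL peptide was the positive control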
ClpP mod: qHTS Assay for Activators of ClpP; ATP-dependent Clp protease proteolytic subunit (Bacillus subtilis (strain 168)), P80244; purified B. subtilis ClpP, FRET peptide cleavage, 20 min; Potency, µM (titrated, usually from 57.5 µM), for the others: at the highest dose activity change, negative = active; hit rate 1.9% among 340,000; AID 651965, 2013; active = well fitted falling curve with a large enough effect; inconclusive = small, poorly fitted or top-dose-only effect; inactive = no such curve, though single readings can be large or run the other way; also: potency is read from the fitted curve at half-maximal effect; the source files actives as falling curves though it sought activators and does not explain the sign; nearly all actives have a fitted effect of over 65% in size; many hits overshoot -100%
Target sequence (P80244 whole entry, looked up): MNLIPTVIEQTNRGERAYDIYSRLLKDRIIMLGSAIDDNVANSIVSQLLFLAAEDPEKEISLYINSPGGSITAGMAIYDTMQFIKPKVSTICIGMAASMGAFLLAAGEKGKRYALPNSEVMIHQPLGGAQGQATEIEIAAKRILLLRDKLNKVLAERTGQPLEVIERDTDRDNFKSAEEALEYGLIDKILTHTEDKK
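Purified B. subtilis ClpP, 10 microg/mL final in Tris/HCl pH8 with KCl, BSA, glycerol and Tween-20, cleaved an Abz/nitrotyrosine-quenched decapeptide. Fluorescence (ex 320, em 430) was read at 0 and 20 min at room temperature. Delta was normalized to 5.8 microM ADEP and DMSO/no-enzyme controls.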
TRPML1 blocker: human mucolipin-1 channel inhibition | TRPML1-inducible cells, Ca2+ dye fluorescence, FDSS; hits give low values; inhibition of EC80 agonist-evoked calcium signal | activity change, negative = inhibition, % (test concentration not listed) | hit rate 0.02% among 390,000; in the data active means activity change below about -50%; inconclusive means about -30% to -50%; inactive means above about -30%;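 also: stimulus is agonist 54-4 at its EC80 concentration; % is scaled to controls: 0 for no effect and ±100 for the full control effect; compound concentration not given in the record; the text of the record puts the active cut at -80%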
Target sequence (Q9GZU1 whole entry, looked up): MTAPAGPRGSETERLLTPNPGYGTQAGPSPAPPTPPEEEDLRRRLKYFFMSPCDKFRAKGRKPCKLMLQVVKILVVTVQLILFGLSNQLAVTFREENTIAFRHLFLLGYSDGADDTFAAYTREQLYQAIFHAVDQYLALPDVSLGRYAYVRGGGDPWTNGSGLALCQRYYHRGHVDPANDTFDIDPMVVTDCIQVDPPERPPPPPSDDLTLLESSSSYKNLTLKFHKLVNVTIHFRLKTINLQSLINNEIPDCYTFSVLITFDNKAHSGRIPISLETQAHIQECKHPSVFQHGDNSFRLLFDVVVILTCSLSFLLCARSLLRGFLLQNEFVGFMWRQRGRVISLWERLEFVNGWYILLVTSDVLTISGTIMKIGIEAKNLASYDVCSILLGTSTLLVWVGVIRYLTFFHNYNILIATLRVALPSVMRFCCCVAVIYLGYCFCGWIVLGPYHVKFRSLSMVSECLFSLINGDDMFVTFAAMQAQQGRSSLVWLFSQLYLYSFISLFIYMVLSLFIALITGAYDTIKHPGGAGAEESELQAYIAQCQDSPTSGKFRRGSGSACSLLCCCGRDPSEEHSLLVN
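Calcium fluorescence in TRPML1-DL cells induced overnight with Tet: a 110 s read after compound pin addition, then a 110 s antagonist read after challenge with 54-4 at 4 uM final (EC80).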
TRPML1 agonist: human mucolipin-1 channel agonism; hit rate 0.12% among 410,000; activation, % (test concentration not listed); TRPML1-expressing cells, Ca2+ dye fluorescence, FDSS; host cell line not named in the record; reference of the full effect not given here; in the data active = activation above about 50%; inconclusive = about 30% to 50%; inactive = below about 30%; also: 0% is about no effect; the text of the record puts the active cut at 80%
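Cells: TRPML1-DL, 1X Tet inducer, ~16 h at 37 degrees C/5% CO2. Dye: ABD Ca8 no-wash + quencher, 45-90 min RT. Read: 10 s baseline, compound add, 110 s agonist phase; 54-4 EC80 (4uM final), 110 s antagonist phase.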
* hit, by the source's call; ? = inconclusive; · = no result given; [ ] = another dose, or the depositor's remark. This is a random part of the collection, and some 2.1% of all compounds hit somewhere here.

compound	gsp antagonist	gsp ag	Menin MLL FP FL	ClpP mod	TRPML1 blocker	TRPML1 agonist
CCOc1ccc(N(CC(=O)Nc2ccccc2C)S(=O)(=O)c2c(C)[nH]c(=O)[nH]c2=O)cc1	12%	5%	0.9	-2.0%	5	0.2
COCCN(CC(=O)Nc1ccccc1C(F)(F)F)C(=O)c1ccc(-n2cccn2)cc1	4%	3%	·	-2.7%	-28	0.2
CCOc1ccc(NC(=O)CN(C)CC(=O)Nc2ccccc2C#N)cc1OCC	-17%	16%	0.4	-1.6%	8	-0.3
Cc1ccc2nc(SCC(=O)Nc3cccnc3Cl)[nH]c2c1	-5%	13%	·	0.6%	-14	0.0
CCOC(=O)c1noc2nc(C)n(Cc3cccc(C#N)c3)c(=O)c12	·	·	·	0.6%	23	2.1
CSc1nc(O)c(C(c2ccccc2Cl)c2c(O)nc(SC)[nH]c2=O)c(=O)[nH]1	9%	-5%	·	·	-4	2.0
C=CCn1cc(C(=O)NCc2ccc(Cl)cc2)c(=O)c2cc(S(=O)(=O)N(CC)CC)ccc21	-26%	-11%[15.4 µM]	1.9	?	0	-0.3
Cc1ccc(N2CCN(c3ccc(C)cc3)C(CC(=O)O)C2=O)cc1 (stereo unspecified)	-10%	-11%	0.6	2.8%	-3	-0.7
CCCn1c(CC)nc([N+](=O)[O-])c1Sc1ccc(C)cc1	-15%	-40%[inhibitor]	-3.9	-1.6%	17	1.3
COc1ccccc1CNC(=O)c1cc2c(s1)-c1ccc(Cl)cc1SC2	·	·	·	?	25	3.6
CC1=C(C(=O)c2ccccc2)C(c2ccc(N3CCOCC3)cc2)NC(=O)N1 (stereo unspecified)	4%	0%	?	-2.1%	5	2.2
O=C(CN1C(=O)/C(=C\C=C\c2ccccc2)SC1=S)Nc1ccc(F)cc1	-5%	2%	?	-18%	?	0.0
O=c1nc2ccccc2c(NS(=O)(=O)c2ccccc2)n1-c1ccccc1	17%	3%	0.2	-1.2%	-11	-0.2
Cc1cccc(Oc2ncnc3onc(C)c23)c1C	6%	23%	2.5	-3.3%	?	0.6
C#CCN(C[C@H]1[C@H](OC(=O)NCc2ccccc2)[C@H](OC(=O)NCc2ccccc2)C[C@H]2C(=O)N(c3ccccc3)C(=O)[C@@H]12)S(=O)(=O)c1ccc(C)cc1	·	-128%[inhibitor]	·	2.4%	-7	1.6
C=CCN1C(=O)C(CC(=O)Nc2ccc(OCC)cc2)N(Cc2ccccn2)C1=S (stereo unspecified)	5%	-3%	-1.0	·	-2	-0.4
CCC(C(=O)Nc1cc(F)ccc1F)n1nc(-c2cc(C)ccc2C)ccc1=O (stereo unspecified)	·	·	·	-1.4%	6	3.2
C/C(=C/CCC(C)[C@H]1CC[C@@]2(C)C3=C(CC[C@]12C)[C@@]1(C)CCC(=O)C(C)(C)[C@@H]1CC3)C(=O)O (stereo partly specified)	-23%	-25%	0.3	-0.7%	48	0.1
COc1ccc(NC(=O)c2ccc(OCC3CCCO3)cc2)cc1OC (stereo unspecified)	3%	-2%	·	-0.4%	-1	-0.6
CC(C)(C)c1ccc(C(=O)NCC(c2ccc(Cl)cc2)N2CCOCC2)cc1 (stereo unspecified)	·	·	·	0.0%	60	0.8
O=C(Cn1nc2sc3ccccc3n2c(=O)c1=O)c1cccs1	-6%	3%	2.5	-15%	9	-0.9
Cc1ccc(CNC(=O)c2cc3cc(C)ccc3n2C)cc1	·	·	·	-13%	1	-0.6
COc1ccc(N2Cc3ccccc3C2=NC(=O)c2cncc(Br)c2)cc1	-8%	7%	0.5	-3.2%	13	-0.5
O=C(CN(CCc1ccccc1)C(=O)CNS(=O)(=O)c1ccc(F)cc1)NCC1CCCO1 (stereo unspecified)	1%	-13%	4.2	-0.4%	9	-0.5
COc1ccc(CCN2CC(C(=O)OCC(=O)NCc3ccccc3Cl)CC2=O)cc1OC (stereo unspecified)	-10%	8%	·	1.9%	8	0.8

Sorted by length of the SMILES (highest first): some entries from above
compound	gsp antagonist	gsp ag	Menin MLL FP FL	ClpP mod	TRPML1 blocker	TRPML1 agonist
C=CCN1C(=O)C(CC(=O)Nc2ccc(OCC)cc2)N(Cc2ccccn2)C1=S (stereo unspecified)	5%	-3%	-1.0	·	-2	-0.4
CC(C)(C)c1ccc(C(=O)NCC(c2ccc(Cl)cc2)N2CCOCC2)cc1 (stereo unspecified)	·	·	·	0.0%	60	0.8
O=c1nc2ccccc2c(NS(=O)(=O)c2ccccc2)n1-c1ccccc1	17%	3%	0.2	-1.2%	-11	-0.2
Cc1ccc(N2CCN(c3ccc(C)cc3)C(CC(=O)O)C2=O)cc1 (stereo unspecified)	-10%	-11%	0.6	2.8%	-3	-0.7

Carrying on:
compound	gsp antagonist	gsp ag	Menin MLL FP FL	ClpP mod	TRPML1 blocker	TRPML1 agonist
CCCC(=O)Nc1c(-c2ccccc2OC)c(=O)c2ccccc2n1C	8%	7%[15.4 µM]	4.3	1.4%	0	-0.2
N#CCSc1ccccc1NC(=O)CN1C(=O)C(=O)N(Cc2ccccc2)C1=O	8%	7%[15.4 µM]	·	-1.0%	10	1.8
COc1ccc(C2C(C#N)=C(N)Oc3cc(O)ccc32)cc1C (stereo unspecified)	-9%	?	?	-3.3%	·	·
Cc1ccc(CNC(=O)c2cnccn2)cc1	10%	5%	6.4	-1.2%	8	1.0
CC(=O)NCc1ccc(C(=O)CSc2nnc(-c3ccncc3)n2Cc2ccccc2)o1	6%	5%	0.9	-1.6%	5	2.8
COCCNC(=S)N(Cc1cc2cc(C)ccc2n2nnnc12)C1CCCC1	-3%	?	0.1	·	-4	2.7
CC(C)Cn1c(N)c(C(=O)COC(=O)CCc2nc3ccccc3c(=O)[nH]2)c(=O)n(C)c1=O	-9%	-20%	·	-2.2%	-7	-0.1
O=C(O)c1ccc(CSc2ccccn2)cc1	-11%	-23%[15.4 µM]	1.5	·	13	0.0
CC(=O)Oc1ccc(N(c2ccccc2)S(=O)(=O)c2ccc(C)cc2)cc1	-24%	-20%	2.9	0.4%	32	1.9
Cc1ccc(NC(=O)CN(C(=O)N2CCN(C)CC2)S(=O)(=O)c2ccc(C)cc2)cc1	14%	-4%	·	-0.1%	-5	0.0
O=C(c1cccs1)N1CCN(Cc2ccncc2)CC1	-3%	22%	-1.7	0.4%	34	1.3
O=C(Nc1nc(-c2ccc(F)cc2)cs1)C1CCN(C(=O)c2ccc(F)cc2)CC1	?	-2%[15.4 µM]	·	-1.4%	-11	0.1
Cc1ccccc1CN1CCCN(CC(=O)Nc2ccc(F)cc2)S1(=O)=O	·	·	·	-0.7%	-9	1.3
CCN(CC)C(=O)CSc1n[nH]c(=O)n1CCc1ccccc1	7%	7%[15.4 µM]	-1.5	·	5	-0.3
CCOC(=O)Cc1csc(NC(=O)CCS(=O)(=O)Cc2ccccc2)n1	-3%	-49%	1.2	0.1%	-8	0.6
CC(NC(=O)Nc1cc(Cl)ccc1Cl)c1c(-n2cccc2)sc2c1CCCC2 (stereo unspecified)	·	·	·	0.4%	5	0.3
CC(C)CCNC(=O)CN1C(=O)c2cccnc2Sc2ccccc21	·	·	·	-0.3%	-22	1.6
O=C(COC(=O)c1cc[n+]([O-])cc1)Nc1cccc(F)c1	8%	5%	·	0.2%	-23	-0.2
CCCN(CCC)C(=O)c1c[nH]c2ccc(S(=O)(=O)N(C)c3ccc(Cl)cc3)cc2c1=O	·	·	·	?	-13	1.6
O=S(N1CCCCCC1)C12CC3CC(CC(C3)C1)C2 (stereo unspecified)	6%	6%	-2.2	-3.7%	-3	0.2
CCOC(=O)N1C=CC=C[C@@H]2[C@@H](N3C(=O)c4ccccc4C3=O)C(=O)N21	4%	10%[15.4 µM]	2.3	0.4%	-11	0.1
CC1CN(C(=O)COC(=O)c2cccs2)CC(C)O1 (stereo unspecified)	12%	-11%	-1.0	0.5%	22	-0.9
CN(C)c1ccc(C=NNc2nc3c([nH]2)c(=O)n(C)c(=O)n3C)cc1	?	1%	·	·	-1	-0.5
COc1ccc(/C=C/C(=O)NCCN2CCOCC2)cc1OC	2%	11%	0.4	3.4%	12	-0.2
CCc1cc(C(c2ccccn2)N2CCN(C)CC2)c(NC(=O)c2ccccc2)s1 (stereo unspecified)	9%	-1%	1.7	3.8%	-7	0.8
O=C(NCc1cccc(C(F)(F)F)c1)c1cccc(S(=O)(=O)NCc2ccccc2)c1	-12%	-3%	0.5	1.4%	-7	1.3
O=C(c1ccccc1)c1ccc(NCCCn2ccnc2)c([N+](=O)[O-])c1	-26%	9%	-6.8	·	1	2.0
COC(=O)c1c(-c2cccs2)csc1NC(=O)c1ccc(C)cc1	·	·	·	?	1	-0.8
CC(=O)c1ccc(NC(=O)C2(S(=O)(=O)c3ccccc3)CC2)cc1	10%	-7%	1.6	·	-5	-0.4
O=S(=O)(c1ccc(NC(=S)N2CCN(c3ccccc3F)CC2)cc1)N1CCOCC1	-16%	-3%[15.4 µM]	3.5	·	11	2.7
COC(=O)C1=C(N)c2c(F)cccc2C1(C#N)c1ccc(F)cc1 (stereo unspecified)	-7%	-3%	5.4	?	9	3.2
COc1ccc(CCNC(=O)c2ccc3c(c2)N(Cc2ccccc2)C(=O)c2ccccc2S3=O)cc1OC (stereo unspecified)	·	·	·	-0.8%	-5	-0.5
COc1ccc(NS(=O)(=O)c2cccs2)c(OC)c1	2%[15.4 µM]	-2%	3.6	-1.6%	7	1.2
COc1ccc([N+](=O)[O-])cc1NC(=O)C1CCCO1 (stereo unspecified)	3%	3%	9.1	-5.0%	10	0.2
CCC(=O)N1CCN(c2ccc(NC(=S)NC(=O)COc3ccccc3)cc2)CC1	?	-22%	1.9	0.1%	-1	-0.7
O=S(=O)(Nc1cccnc1)c1cccs1	-13%	-5%	2.0	-1.1%	4	-0.1
O=C(CSc1nnc(-c2cc3ccccc3cc2O)n1Cc1ccco1)c1ccc(F)cc1	-16%	8%	1.1	-1.8%	17	1.5
COC(=O)c1ccc(NC(=O)CCc2c(C)nc3c(-c4ccccc4)c(C)nn3c2C)cc1	·	·	·	-2.5%	42	1.1
O=C(COC(=O)CCc1c[nH]c2ccccc12)Nc1ccccc1	-2%	4%[15.4 µM]	·	0.2%	-6	0.1
